HPGD block: qHTS Assay for Inhibitors of HPGD (15-Hydroxyprostaglandin Dehydrogenase) | 4.3% of 150,000 active | purified HPGD, NADH fluorescence kinetic, PGE2 substrate | 15-hydroxyprostaglandin dehydrogenase [NAD(+)] (Homo sapiens), P15428 | Potency, µM, inactives show at the highest dose activity change, negative = inhibition, actives largely listed as inhibitors; active = well fitted inhibition curve with a large enough effect (not every such curve was filed as active); inconclusive = small, poorly fitted or top-dose-only effect, or another doubt; inactive = no such curve, though single readings can be large or run the other way;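 further: top concentration of the series not given in the record; plate controls included wells without enzyme; inactives centre near -10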
Target sequence (P15428 whole entry, looked up): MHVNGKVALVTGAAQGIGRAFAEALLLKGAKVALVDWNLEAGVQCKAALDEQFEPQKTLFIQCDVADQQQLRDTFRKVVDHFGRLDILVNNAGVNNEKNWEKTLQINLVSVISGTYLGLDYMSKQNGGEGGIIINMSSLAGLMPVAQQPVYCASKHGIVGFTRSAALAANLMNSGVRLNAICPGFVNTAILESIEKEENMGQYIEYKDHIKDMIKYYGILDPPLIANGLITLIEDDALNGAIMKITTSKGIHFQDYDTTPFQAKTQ
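NADH formation kinetics: reaction with 30 uM PGE2 and 1 mM NAD+ (final), 20 nM enzyme, Tris-HCl pH 8 with Tween 20, after 15 min compound preincubation at room temperature. Fluorescence change, last versus first of five reads.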
Active calls of the source: *; ? = inconclusive. On the % scale 0 is the no-effect control and ±100 the full control effect; potency means the concentration at half of the fitted maximal effect.

CC1(C)CC[C@]2(C)CC[C@@]3(C)C(=CCC4[C@@]5(C)CCC(O)C(C)(C)C5CC[C@@]43C)C2C1 (some centres not stated)
  HPGD block: -6%
O=C(CCOc1ccccc1)NCC(c1ccco1)N1CCCCC1 (configuration not stated)
  HPGD block: -10%
COc1ccc(OC)c(NS(=O)(=O)c2ccc(Cl)s2)c1
  HPGD block: -5%
C#CC(=O)N(c1ccc(OC)c(OC)c1)C(C(=O)NC1CCCC1)c1cccs1 (configuration not stated)
  HPGD block: -5%
Cc1cc(C)c(-c2cc(C(=O)Nc3c(C)n(C)n(-c4ccccc4)c3=O)[nH]n2)c(O)c1
  HPGD block: -4%
Cc1c(Cl)cccc1NC(=O)CCCN1C(=O)CCC1=O
  HPGD block: -13%
O=C(Cn1c(-c2cncs2)nc2ccccc21)NC1CCCC1
  HPGD block: -5%
Cn1cccc1C(=O)NC(=O)COC(=O)C12CC3CC(CC(O)(C3)C1)C2
  HPGD block: -9%
CC(=O)NCCC(=O)Nc1sc2c(c1-c1nc3ccccc3[nH]1)CCCC2
  HPGD block: ?
CCC1CCCCN1C(=S)NC(=O)c1ccc([N+](=O)[O-])cc1 (configuration not stated)
  HPGD block: -17%
CC(C)[C@H](NS(=O)(=O)c1ccccc1)C(=O)OCC(=O)NC(=O)c1cccn1C
  HPGD block: -15%
COc1ccc2[nH]cc(C(=O)CN3CCCC(C)C3)c2c1 (configuration not stated)
  HPGD block: -8%
CCOC(=O)c1c(-c2ccco2)csc1NC(=O)CSc1nnc(N)s1
  HPGD block: -18%
CCCOc1ccc(-c2nnn(CC(=O)N3CCC(C)CC3)n2)cc1
  HPGD block: 2%
COc1ccc(NC(=O)CCN2CCCC(C)C2)cc1 (configuration not stated)
  HPGD block: -12%
CCC(C)NC(=O)CNC(=S)N(CCCN1CCOCC1)Cc1cccs1 (configuration not stated)
  HPGD block: -5%
CCn1ncc(/C=C/C(=O)NCc2cnn(C)c2C)c1C
  HPGD block: -6%
COc1cccc(C2C(C(C)=O)=C(O)C(=O)N2CCc2c[nH]c3ccccc23)c1 (configuration not stated)
  HPGD block: -7%
CNC(=O)c1ccc(OC2CSC2)cc1
  HPGD block: -5%
Cc1ccc(Nc2nc3c([nH]2)c(=O)n(C)c(=O)n3C)cc1
  HPGD block: -9%
Clc1ccccc1CSc1nnc(-c2ccncc2)o1
  HPGD block: -28%
CCC(C)NC(=O)C1CCC(=O)N(c2cc(OC)c(OC)c(OC)c2)C1c1ccc(OC)cc1 (configuration not stated)
  HPGD block: -11%
CC(C(=O)O)c1cccc(Oc2ccccc2)c1 (configuration not stated)
  HPGD block: -20%
c1coc(CNC2C3CC4CC(C3)CC2C4)c1 (configuration not stated)
  HPGD block: 0%
CCCn1cnc2cc(NCc3ccccn3)ccc21
  HPGD block: -15%

Brought forward from above: 3 entries, then new ones.
CC(C(=O)O)c1cccc(Oc2ccccc2)c1 (configuration not stated)
  HPGD block: -20%
c1coc(CNC2C3CC4CC(C3)CC2C4)c1 (configuration not stated)
  HPGD block: 0%
CCCn1cnc2cc(NCc3ccccn3)ccc21
  HPGD block: -15%
Cc1c(Cl)cccc1NC(=O)C1Cc2ccccc2CN1C(=O)c1ccccc1 (configuration not stated)
  HPGD block: -1%
CCS(=O)(=O)Nc1cccc(C2=NN(S(=O)(=O)c3ccc(C)cc3)C(c3cccs3)C2)c1 (configuration not stated)
  HPGD block: -21%
O=C(COc1cccc2ccccc12)N1CCN(c2ccccc2)CC1
  HPGD block: -18%
Cc1cccc(OCC(=O)Nc2sc3c(c2C#N)CCC3)c1
  HPGD block: -9%
Cc1nnc(NC(=O)C2CCCN(c3ncccn3)C2)s1 (configuration not stated)
  HPGD block: -13%
O=C(O)C1C2CCC(O2)C1C(=O)NCc1ccncc1 (configuration not stated)
  HPGD block: -14%
CC(=O)c1ccc(NC(=O)CSc2nnc(Cn3c(=O)sc4ccccc43)n2C)cc1
  HPGD block: -12%
CSCCC(NC(C)=O)C(=O)Oc1ccc2c3c(c(=O)oc2c1)CCCC3 (configuration not stated)
  HPGD block: ?
COc1ccc(NC(=O)CCNC(C)=O)cc1NS(=O)(=O)c1ccc(F)cc1
  HPGD block: -18%
CSCSC1=C(C#N)C(c2ccccc2Cl)C(C(C)=O)=C(C)N1 (configuration not stated)
  HPGD block: ?
COCCn1c(SCC(=O)Nc2ccc(S(N)(=O)=O)cc2)nc2ccccc21
  HPGD block: -5%
CC(=O)Nc1cccc(OCC(=O)Nc2ccc(F)cc2)c1
  HPGD block: -3%
Cn1nc(-c2ccccc2)c(C(=O)Nc2ccc(Cl)cc2)c1Cl
  HPGD block: 5%
CCC(C)/C(C)=N/NC(=O)c1ccc(COc2ccc(Cl)c(C)c2)cc1 (configuration not stated)
  HPGD block: -15%
CC(NC(=O)c1ccco1)C1COc2ccccc2O1 (configuration not stated)
  HPGD block: -6%
CCn1cc(C2N3CC4(C)CN2CC(C)(C3)C4=O)c2ccccc21 (configuration not stated)
  HPGD block: 4%
CC(=O)CSc1nc2ccc(Nc3nc(N4CCOCC4)nc(N4CCOCC4)n3)cc2s1
  HPGD block: -27%
O=C(COc1ccc(C(=O)Nc2ccc(Cl)cc2)cc1)NCc1ccccc1
  HPGD block: 1%
COc1cc(CNc2ccc3c(c2)CCC3)cc(OC)c1O
  HPGD block: -27%
C=CCOc1ccc2ccccc2c1CNCCCN1CCOCC1
  HPGD block: -8%
O=c1oc2cc(OCc3ccc(F)cc3F)ccc2cc1-c1ccc2ccccc2n1
  HPGD block: ?
O=C(Cn1c(NCCO)nc2ccccc21)NCCc1ccccc1
  HPGD block: -14%
O=C(Nc1cccc(N=Cc2cc(Br)cc(Br)c2O)c1)c1ccco1
  HPGD block: -12%
CCOC(=O)c1ccc(NC(=O)C2(c3ccc(OC)cc3)CCOCC2)cc1
  HPGD block: -6%
CS(=O)(=O)N(CC(=O)NCc1ccccc1Cl)Cc1ccccc1
  HPGD block: 3%

c1ccc2c(NC3CCCC3)nnc(NC3CCCC3)c2c1
  HPGD block: -10%
O=C(CCCc1nc2ccccc2s1)Nc1nccs1
  HPGD block: -21%
CCOC(=O)c1nnn(CC(=O)N2N=C(c3ccc(Cl)cc3)CC2c2ccc(OC)cc2)c1C(=O)OCC (configuration not stated)
  HPGD block: ?
O=C(Cn1c2[n+](c3ccc(C(F)(F)F)cc31)CCCCC2)Nc1ccccc1
  HPGD block: -8%
CC(C)n1c(/N=C/c2c[nH]c3ccccc23)nc2ccccc21
  HPGD block: -14%
COc1ccc(NC2=NCC(=O)N2c2ccccc2)c(OC)c1
  HPGD block: 2%
CC(=O)c1ccc(S(=O)(=O)Nc2cccc(S(=O)(=O)NC3=NCCC3)c2)cc1
  HPGD block: -6%
COc1ccccc1CN=Cc1[nH]c2ccc(Br)c(Cl)c2c1O
  HPGD block: 13µM*
O=C(Nc1ccccc1)OCCN1CCN(Cc2ccccc2)CCC1=O
  HPGD block: -4%
COC1=CCC2([N+](=O)[O-])CN(CCO)CC1([N+](=O)[O-])C2 (configuration not stated)
  HPGD block: -5%
O=C(O)/C=C/C(=O)N1CCN(c2ccccc2F)CC1
  HPGD block: -1%
CCc1cc2c(=O)[nH]c(Cc3ccc(Cl)cc3)nc2s1
  HPGD block: -4%
COc1ccc(NS(=O)(=O)c2ccc(OC)c(N(C)S(=O)(=O)c3ccc(Cl)cc3)c2)cc1
  HPGD block: -20%
CCCC1CCC(c2nc(-c3cccnc3)no2)CC1 (configuration not stated)
  HPGD block: -15%
CC1Cc2ccccc2N1C(=O)COC(=O)C1(c2ccccc2F)CCCC1 (configuration not stated)
  HPGD block: -3%
COc1ccc(/C=N/NC(=O)c2ccc(O)cc2O)cc1CSc1ccccn1
  HPGD block: ?
CN1CCc2c(OCC(=O)N3N=C(c4cccs4)CC3c3ccc(F)cc3)cccc2C1=O (configuration not stated)
  HPGD block: ?
CCOc1cc(N2CCOCC2)c(OCC)cc1NC(=O)c1cc(-c2ccco2)nc2ccccc12
  HPGD block: -21%
O=C(CNC(=O)C1CCCCC1)Nc1cc(Cl)ccc1Cl
  HPGD block: -8%
O=c1nc(Nc2ccccc2)sc2ccc([N+](=O)[O-])cc12
  HPGD block: -14%
CCN(c1cccc(C)c1)S(=O)(=O)c1cccc2nsnc12
  HPGD block: -14%
Cc1ccc(S(=O)(=O)NCCC(=O)Nc2ccc(Cl)c(Cl)c2)cc1
  HPGD block: 1%
Cc1ccc(-c2nnc(SCC(=O)OC(C)C)n2N)cc1
  HPGD block: -4%
COc1cc(Cl)c(C)cc1NC(=O)CSc1nnc(-c2ccco2)n1CC(C)C
  HPGD block: ?
O=C(/C=C1\NC2(CCCC2)Cc2ccccc21)N1CCOCC1
  HPGD block: -14%

An excerpt of these results, bar-delimited.
Molecule | HPGD block
O=C(CCCc1nc2ccccc2s1)Nc1nccs1 | -21%
CCOC(=O)c1nnn(CC(=O)N2N=C(c3ccc(Cl)cc3)CC2c2ccc(OC)cc2)c1C(=O)OCC (configuration not stated) | ?
O=C(Cn1c2[n+](c3ccc(C(F)(F)F)cc31)CCCCC2)Nc1ccccc1 | -8%

Other compounds follow:
COCCNC(=O)CSc1nc2ccccc2c(=O)n1-c1cccc(OC)c1
  HPGD block: -18%
CC(NC(=O)c1ccccc1)c1ccc(F)cc1 (configuration not stated)
  HPGD block: -8%
COc1ccccc1NC(=O)Cc1csc(NC(=S)Nc2ccccc2)n1
  HPGD block: -22%
NC(=O)c1ncc(C(F)(F)F)cc1Oc1ccc(F)cc1
  HPGD block: -6%
Cc1ccc(-c2nn(-c3cc(Cl)ccc3[N+](=O)[O-])c(=O)c3ccccc23)cc1C
  HPGD block: -23%
CCCCc1ccc(-c2nc(NC(=O)C3C4CCC(O4)C3C(=O)O)sc2C)cc1 (configuration not stated)
  HPGD block: -14%
CCCCCOC(=O)Cc1c(O)c2ccccc2n(C)c1=O
  HPGD block: ?
CCN(/N=C/C=C/c1ccccc1)c1cc(=O)n(C)c(=O)[nH]1
  HPGD block: -26%
COc1ccc(Cl)cc1NC(=O)COc1cccc(-n2cnnn2)c1
  HPGD block: -20%
O=C(N/N=C/c1ccc(COc2ccc(Br)cc2)o1)c1ccco1
  HPGD block: -5%
CCOc1ccc2[nH]c(=O)c(CN(Cc3ccc(F)cc3)C(=O)N3CCCC3)cc2c1
  HPGD block: ?
Cn1c(=O)n(CCc2ccccc2)c(=O)c2c1nc1n2CCCN1Cc1ccccc1
  HPGD block: -9%
COc1ccc(C2CC(c3ccccc3)=NN2C(=O)COC(=O)c2cccnc2)cc1 (configuration not stated)
  HPGD block: -2%
CC1CCN(Cc2ccc(-c3nn[nH]n3)cc2)CC1
  HPGD block: -14%
O=C1OC(Nc2nc3ccccc3s2)c2ccccc21 (configuration not stated)
  HPGD block: -6%
Cc1cc2oc(=O)cc(CN3CCOCC3)c2cc1C
  HPGD block: -1%
Cc1ccc(C(=O)NCCNc2ccc(Cl)cc2[N+](=O)[O-])o1
  HPGD block: -21%
Cn1c(NC(=O)c2ccc(Br)o2)cc(=O)n(C)c1=O
  HPGD block: -3%
COC(=O)C1=C(C)N(CC2CCCO2)C(=O)/C1=C\c1ccc(O)cc1 (configuration not stated)
  HPGD block: -13%
COc1nc(NCCc2ccc(OC)c(OC)c2)nc(NC(C)(C)CO)n1
  HPGD block: -5%
Cc1nc2ccccc2c2nc(N)nn12
  HPGD block: -26%
Cc1cc2c(cc1Cl)N(C(=O)Nc1ccnc3ccccc13)CC2
  HPGD block: -9%
Cn1cc(C2=C(c3cn(CCCSC(=N)N)c4ccccc34)C(=O)NC2=O)c2ccccc21
  HPGD block: -8%
C#CC[N+]1(CC#Cc2ccccc2)CCCC1
  HPGD block: -7%
Cn1c(=O)c2c(ncn2CC(=O)NC(C)(C)C)n(C)c1=O
  HPGD block: -4%

Cc1ccc2nc3c(cc(C(N)=S)c(=N)n3CCCOC(C)C)c(=O)n2c1
  HPGD block: ?
CCOc1ccc2[nH]c(=O)c(CN(CCc3ccccc3)C(=O)c3cnccn3)cc2c1
  HPGD block: -11%
COC(=O)c1c(C(=O)OC)c(-c2ccccc2)n2c1CS(=O)C2 (configuration not stated)
  HPGD block: -15%
COc1cc(C(=O)Oc2cc(C)[nH]c(=O)c2[N+](=O)[O-])cc(OC)c1OC
  HPGD block: -7%
CCNc1nc(NCC)nc(OCCOC(=O)COc2ccc(Cl)cc2Cl)n1
  HPGD block: -14%
CCn1c(=O)c(C(=O)NCCN2CCCCC2)c(O)c2ccccc21
  HPGD block: -12%
Cc1nc2sc(C(c3cccs3)N3CCN(c4ccccc4)CC3)c(O)n2n1 (configuration not stated)
  HPGD block: -6%
Cc1ccc(NC(=O)CSc2nnc(-c3cccs3)o2)cc1S(=O)(=O)N1CCCCC1
  HPGD block: -11%
O=C(COC(=O)c1ccc(S(=O)(=O)NCc2ccco2)cc1)Nc1ccc(OC(F)F)cc1
  HPGD block: -9%
COc1cccc(N2CCN(Cc3nc4scc(-c5ccccc5)c4c(=O)[nH]3)CC2)c1
  HPGD block: -16%
Nc1ccc2oc(-c3ccc4nc[nH]c4c3)nc2c1
  HPGD block: -17%
O=C(COc1ccccc1Cl)NCc1ccncc1
  HPGD block: 2%
O=C(Nc1ccc(F)c(F)c1)c1cnc(-c2ccccc2)nc1-c1ccccc1
  HPGD block: -7%
c1ccc2[nH]c(CN3CCOCC3)nc2c1
  HPGD block: ?
Cc1nn(Cc2ccccc2)c(C)c1NC(=O)CSc1n[nH]c(C)c1[N+](=O)[O-]
  HPGD block: -20%
CCn1c(SCC(=O)Nc2nccs2)nnc1-c1ccncc1
  HPGD block: -6%
CS(=O)(=O)NCCSCc1ccco1
  HPGD block: 2%
Cc1oc(-c2ccc(Cl)cc2)nc1CN1CCCC(C(=O)NCc2cccnc2)C1 (configuration not stated)
  HPGD block: -8%

These rows are one share of the data (hit frequency here may not be typical).
